Compound activity as filed in PubChem BioAssay.
FGF22 binding: binders of recombinant human FGF22 by thermal shift; Q9HCT0; SYPRO orange fluorescence; percent of sucrose octasulfate shift, DMSO zero; calls only at 9.99 µM; 340,000 tested, 1.5% active; AID 651658;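 active = melting point raised past a set limit in the mean and every replicate; three in four hits are not shown here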
Target sequence (Q9HCT0 whole entry, looked up): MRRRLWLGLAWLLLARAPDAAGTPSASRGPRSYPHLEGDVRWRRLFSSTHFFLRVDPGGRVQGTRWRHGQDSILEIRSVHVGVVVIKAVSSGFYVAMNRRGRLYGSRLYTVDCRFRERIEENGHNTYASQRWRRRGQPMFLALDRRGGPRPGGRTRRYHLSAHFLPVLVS
AF4-AF9 inh: MLL-AF4/AF9 protein interaction inhibition. P42568. AlphaScreen, biotin-AF4 peptide binding to FLAG-AF9. inhibition, % at 10 µM. 350,000 tested, 0.47% active. AID 651704;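 active = every replicate reaching a set inhibition limit, whatever the replicate mean, cut at about 25% in these data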;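 note: 0% = plate neutral control median and 100% = total signal loss; the record names both 10 and 1 µM as test concentration; the first replicate is given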
Target sequence (P42568 whole entry, looked up): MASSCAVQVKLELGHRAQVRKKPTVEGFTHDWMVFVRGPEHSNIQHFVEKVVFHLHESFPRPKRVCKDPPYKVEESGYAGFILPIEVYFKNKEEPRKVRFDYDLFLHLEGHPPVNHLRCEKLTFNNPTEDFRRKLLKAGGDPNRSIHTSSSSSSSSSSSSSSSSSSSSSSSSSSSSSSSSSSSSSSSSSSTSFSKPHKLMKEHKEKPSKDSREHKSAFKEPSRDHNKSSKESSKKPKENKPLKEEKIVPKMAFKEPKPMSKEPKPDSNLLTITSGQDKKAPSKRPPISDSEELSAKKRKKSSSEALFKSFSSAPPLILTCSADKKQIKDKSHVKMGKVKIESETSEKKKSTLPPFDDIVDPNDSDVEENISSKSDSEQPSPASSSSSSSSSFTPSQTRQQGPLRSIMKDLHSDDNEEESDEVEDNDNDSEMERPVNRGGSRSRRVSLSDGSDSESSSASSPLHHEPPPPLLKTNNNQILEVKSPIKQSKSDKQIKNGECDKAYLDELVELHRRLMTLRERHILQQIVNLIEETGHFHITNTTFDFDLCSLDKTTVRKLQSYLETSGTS
* marks the source's active call; other numbers are inactive results; i = inactive; . = not tested or not shown. These rows are one share of the data, so the mix of outcomes need not match the whole.

Every second line gives: FGF22 binding	AF4-AF9 inh
CO[C@H]1CN(C)C(=O)c2ccc(NS(=O)(=O)c3cccc(F)c3)cc2OC[C@@H](C)N(Cc2cc(F)ccc2F)C[C@H]1C
  i	0.8
COc1ccccc1CNC(=O)C[C@@H]1C[C@@H]2c3cc(NS(C)(=O)=O)ccc3O[C@@H]2[C@@H](CO)O1
  i	-1.2
Cc1cccc(S(=O)(=O)N2C[C@H]3[C@@H](c4ccccc42)[C@@H](CO)N3Cc2ccccn2)c1
  i	-1.2
COC(=O)C1=C(C)N(C)C(=NCc2ccccc2)NC1c1cccc(Cl)c1 (stereo not given)
  .	2.5
C[C@H](CO)N1C[C@H](C)[C@H](CN(C)C(=O)Nc2ccc3c(c2)OCO3)Oc2ccc(NC(=O)Nc3ccc(F)cc3)cc2C1=O
  i	3.8
COc1ccc(CN(C)C[C@H]2Oc3c(NS(=O)(=O)c4c(C)noc4C)cccc3C(=O)N([C@H](C)CO)C[C@H]2C)cc1
  i	-2.7
CN(C)C(=O)c1ccc(-c2ccc(C3[C@H]4CNC[C@@H]3N4S(=O)(=O)c3ccc(Cl)cc3)cc2)cc1 (stereo not given in full)
  i	11
O=C(C[C@@H]1CC[C@@H]2[C@H](COC[C@@H](O)CN2Cc2ccc3c(c2)OCO3)O1)Nc1ccccc1
  i	0.4
N#Cc1cccc(-c2ccc3c(c2)[C@H]2[C@H](CCN2Cc2ccc4c(c2)OCO4)[C@H](CO)N3)c1
  i	-0.1
COc1ccc(CN(C)C[C@H]2OCCCC[C@@H](C)Oc3ccc(NS(=O)(=O)c4ccc(F)cc4)cc3C(=O)N([C@@H](C)CO)C[C@@H]2C)cc1
  i	4.4

Remaining list, next part
Every second line gives: FGF22 binding	AF4-AF9 inh
COCC(=O)N1CCCCN2[C@@H](CO)[C@@H](c3ccc(C#Cc4cccnc4)cc3)[C@@H]2C1
  i	-4.7
C[C@@H]1CN([C@@H](C)CO)C(=O)c2cccc(NS(=O)(=O)c3cccs3)c2O[C@@H]1CN(C)C
  i	-9.3
NCC[C@H]1CC[C@H](NC(=O)Cc2ccncc2)[C@H](CO)O1
  i	0.9
O=C(c1cnccn1)N1CC(=O)N2[C@@H](CO)[C@H](c3ccc(-c4cccc(F)c4)cc3)[C@@H]2C1
  i	0.1
CO[C@H]1CN(C)C(=O)c2cc(NC(=O)C3CCCCC3)ccc2OC[C@@H](C)NC[C@H]1C
  i	-3.4
C#CCNC(=O)C[C@H]1C[C@@]2(C(=O)OC)C(=C[C@H](C(C)(C)C)O[C@@H]2C)N(Cc2ccc3c(c2)OCO3)C1=O
  i	-3.1
CN(C)CC(=O)N1CC2(C1)[C@@H](c1ccccc1)[C@@H](CO)N2C(=O)C1CC1
  i	-1.3
Cc1ccc(S(=O)(=O)Nc2ccc3c(c2)C(=O)N([C@@H](C)CO)C[C@H](C)[C@@H](CN(C)S(=O)(=O)c2ccc(C)cc2)O3)cc1
  i	-1.2
COc1cccc(NC(=O)C[C@@H]2CC[C@H]3[C@@H](COc4ccc(NC(=O)c5ccccc5F)cc4C(=O)N3C)O2)c1
  i	-20
CNC[C@@H]1Oc2ccc(NC(=O)Nc3ccccc3)cc2CC(=O)N([C@H](C)CO)C[C@H]1C
  i	-0.8

Going on with the list.
Every second line gives: FGF22 binding	AF4-AF9 inh
O=C(C[C@H]1CC[C@H]2[C@@H](COC[C@@H](O)CN2Cc2ccc(Oc3ccccc3)cc2)O1)Nc1nccs1
  i	6.4
O=C(c1cnccn1)N1CC2(C1)[C@@H](c1ccccc1)[C@@H](CO)N2C(=O)c1ccccc1
  i	0.2
C[C@@H]1CN([C@@H](C)CO)C(=O)c2cc(C#CCN(C)C)cnc2O[C@H]1CN(C)C(=O)NC1CCCC1
  i	-5.6
CN(C)C(=O)C[C@@H]1C=C[C@@H](NC(=O)NC2CCCCC2)[C@H](CO)O1
  i	-1.6
COc1ccc(S(=O)(=O)N(C)C[C@H]2Oc3ccc(NC(=O)CCCN(C)C)cc3CC(=O)N([C@H](C)CO)C[C@@H]2C)cc1
  i	2.1
CC(C)CC#Cc1ccc2c(c1)O[C@H](CN(C)C(=O)c1ccccn1)[C@H](C)CN([C@H](C)CO)S2(=O)=O
  i	4.2
COc1ccc(NC(=O)N2CCCCN3[C@H](C2)[C@@H](c2ccc(C#Cc4ccccc4)cc2)[C@@H]3CO)cc1
  i	-8.2
C[C@H]1CN([C@@H](C)CO)C(=O)Cc2cc(NC(=O)C3CCCCC3)ccc2O[C@@H]1CN(C)S(=O)(=O)c1cccs1
  i	-1.1
CCCNC(=O)N(C)C[C@H]1Oc2cc(C#C[C@@H](C)O)ccc2S(=O)(=O)N([C@@H](C)CO)C[C@H]1C
  i	-3.2
C[C@@H]1CN([C@H](C)CO)C(=O)c2cccc(NS(C)(=O)=O)c2O[C@H]1CN(C)Cc1ccc(C(=O)Nc2ccccc2N)cc1
  i	4.8

Brought forward from above: 3 entries; new compounds follow.
Every second line gives: FGF22 binding	AF4-AF9 inh
C[C@H]1CN([C@@H](C)CO)C(=O)Cc2cc(NC(=O)C3CCCCC3)ccc2O[C@@H]1CN(C)S(=O)(=O)c1cccs1
  i	-1.1
CCCNC(=O)N(C)C[C@H]1Oc2cc(C#C[C@@H](C)O)ccc2S(=O)(=O)N([C@@H](C)CO)C[C@H]1C
  i	-3.2
C[C@@H]1CN([C@H](C)CO)C(=O)c2cccc(NS(C)(=O)=O)c2O[C@H]1CN(C)Cc1ccc(C(=O)Nc2ccccc2N)cc1
  i	4.8
COc1cccc(C(=O)Nc2ccc3c(c2)C(=O)N(C)C[C@@H](OC)[C@@H](C)CN(CC2CC2)[C@@H](C)CO3)c1
  i	0.3
Cc1ccccc1-c1ccc([C@H]2[C@@H](CO)N3CCCCN(C(=O)Nc4ccc(F)cc4)C[C@@H]23)cc1
  i	-4.1
C[C@@H]1CN([C@H](C)CO)S(=O)(=O)c2ccc(C3=CCCC3)cc2O[C@@H]1CN(C)Cc1ccccc1
  i	7.9
COc1ccc2c3c([nH]c2c1)[C@@H](CO)N(C(=O)NC(C)C)CC31CCN(C(=O)c2cccnc2)CC1
  i	-0.2
COc1ccc(S(=O)(=O)N(C)C[C@H]2Oc3ccc(NS(=O)(=O)c4c(C)noc4C)cc3CC(=O)N([C@@H](C)CO)C[C@H]2C)cc1
  i	0.5
C/C=C/c1ccc2c(c1)O[C@H](CN(C)S(C)(=O)=O)[C@H](C)CN([C@@H](C)CO)S2(=O)=O
  i	0.9
O=C(O)C[C@H]1C[C@H]2c3cc(NC(=O)NC4CCCCC4)ccc3O[C@H]2[C@@H](CO)O1
  i	-2.7
O=C(C[C@H]1C[C@H]2c3cc(NC(=O)C4CCC4)ccc3O[C@H]2[C@@H](CO)O1)NCc1ccccc1
  i	0.3
CO[C@@H]1CN(C)C(=O)c2cc(NC(=O)NC3CCCCC3)ccc2OC[C@H](C)N(CCc2ccccc2)C[C@H]1C
  i	4.3
C[C@H]1CN([C@@H](C)CO)C(=O)c2cc(NS(=O)(=O)c3cn(C)cn3)ccc2O[C@H]1CN(C)CC1CCCCC1
  i	-3.8

Continuation.
Every second line gives: FGF22 binding	AF4-AF9 inh
C[C@H](CO)N1C[C@H](C)[C@@H](CN(C)Cc2ccc3c(c2)OCO3)Oc2ccc(NC(=O)C3CCCCC3)cc2C1=O
  i	-1.1
Cn1cnc(CCNC(=O)C[C@H]2CC[C@@H]3[C@H](COC[C@H](O)CN3C(=O)C3CC3)O2)c1
  i	0.3
CO[C@@H]1CC[C@H]2CCN(C)C(=O)CCCN(C)C(=O)c3cccc(C#N)c3OC[C@H]1O2
  i	1.5
O=C(N[C@@H]1C=C[C@@H](CC(=O)N2CCCCC2)O[C@H]1CO)c1ccccn1
  i	-3.7
COc1ccc(NC(=O)N(C)C[C@H]2Oc3ncc(C#CCC(C)C)cc3C(=O)N([C@@H](C)CO)C[C@H]2C)cc1
  i	-12
Cc1ccc(S(=O)(=O)N(C)C[C@H]2Oc3ccc(NC(=O)Cn4cnnn4)cc3C(=O)N([C@H](C)CO)C[C@H]2C)cc1
  i	0.2
Cc1ccc(-c2ccc3c(c2)O[C@H](CN(C)C(=O)C2CC2)[C@@H](C)CN([C@H](C)CO)S3(=O)=O)cc1
  i	2.4
O=C(NCC[C@H]1CC[C@@H](NS(=O)(=O)Cc2ccccc2)[C@@H](CO)O1)C1CCCC1
  i	-4.3
C[C@H](CO)N1C[C@H](C)[C@H](CN(C)Cc2ccncc2)Oc2ncc(C#CC(C)(C)O)cc2C1=O
  i	-1.3
O=C(C[C@@H]1C=C[C@H](NC(=O)Nc2ccc3c(c2)OCO3)[C@@H](CO)O1)NCc1ccc2c(c1)OCO2
  i	1.6

Following part:
Every second line gives: FGF22 binding	AF4-AF9 inh
CC=Cc1ccc2n(c1=O)C[C@@H]1[C@@H](CO)[C@H](C(=O)N[C@@H](C)c3ccccc3)[C@H]2N1CC (mixture of isomers)
  i	0.7
CNC[C@@H]1Oc2ccc(NC(=O)NC(C)C)cc2C(=O)N([C@@H](C)CO)C[C@@H]1C
  i	-2.8
C[C@@H]1CCCCO[C@@H](CN(C)CC2CCCCC2)[C@H](C)CN([C@@H](C)CO)C(=O)c2cc(NC(=O)c3ccccc3)ccc2O1
  i	10
C[C@H](CO)N1C[C@H](C)[C@@H](CN(C)Cc2ccncc2)Oc2ncc(/C=C/c3ccccc3)cc2C1=O
  i	11
CCC(=O)Nc1ccc2c(c1)C(=O)N(C)[C@@H]1CC[C@H](CC(=O)N[C@H](C)c3ccccc3)O[C@H]1CO2
  i	-0.2
COc1ccc(S(=O)(=O)Nc2ccc3c(c2)CC(=O)N([C@@H](C)CO)C[C@H](C)[C@@H](CN(C)S(C)(=O)=O)O3)cc1
  i	2.7
O=C(C[C@@H]1C[C@H]2c3cc(NS(=O)(=O)c4ccc(F)cc4)ccc3O[C@H]2[C@H](CO)O1)NCc1ccccc1
  i	1.4
COCC#Cc1cnc2c(c1)C(=O)N([C@@H](C)CO)C[C@@H](C)[C@H](CN(C)C(=O)c1cccnc1)O2
  i	-2.7
CC(C)NC(=O)Nc1ccc2c(c1)C(=O)N([C@H](C)CO)C[C@@H](C)[C@@H](CN(C)C(=O)CCCN(C)C)OCCCC[C@@H](C)O2
  i	-2.0
Cc1ccc(S(=O)(=O)NCC[C@@H]2CC[C@H](NC(=O)c3cnccn3)[C@@H](CO)O2)cc1
  i	-2.4

(listing goes on)
Every second line gives: FGF22 binding	AF4-AF9 inh
C[C@@H]1CN([C@@H](C)CO)C(=O)c2cc(-c3ccccc3)cnc2O[C@H]1CN(C)C(=O)NC1CCCC1
  i	-1.1
COc1ccc(NC(=O)Nc2ccc3c(c2)C(=O)N([C@H](C)CO)C[C@H](C)[C@H](CN(C)S(=O)(=O)c2ccc(Cl)cc2)OCCCC[C@@H](C)O3)cc1
  i	-2.5
CC(C)C#Cc1ccc([C@H]2[C@H](CO)N3CCCCN(C(=O)c4ccc(F)cc4)C[C@@H]23)cc1
  i	5.6
O=S(=O)(c1ccccc1)N1CCCCN2[C@H](CO)[C@@H](c3ccc(C#Cc4cccnc4)cc3)[C@H]2C1
  i	6.7
Cc1ccc(S(=O)(=O)N[C@H]2C=C[C@@H](CC(=O)NCc3ccncn3)O[C@H]2CO)cc1
  i	0.4
COc1cccc(NC(=O)C[C@H]2CC[C@@H]3[C@@H](COc4ccc(NC(=O)C5CC5)cc4C(=O)N3C)O2)c1
  i	2.6
C[C@H]1CN([C@@H](C)CO)C(=O)c2cc(NS(C)(=O)=O)ccc2O[C@@H]1CN(C)C(=O)Nc1cccc2ccccc12
  i	-0.9
C[C@@H]1CCCCO[C@@H](CN(C)C(=O)CCCN(C)C)[C@H](C)CN([C@H](C)CO)C(=O)c2cc(NC(=O)NC3CCCCC3)ccc2O1
  i	1.7
CO[C@H]1CN(C)C(=O)c2cc(NC(=O)C3CCC3)ccc2OC[C@@H](C)NC[C@H]1C
  i	0.0
CC(C)NC(=O)N(C)C[C@H]1Oc2c(NC(=O)c3cnccn3)cccc2C(=O)N([C@@H](C)CO)C[C@@H]1C
  i	-3.6

Complete entries from above. Screens in order: FGF22 binding | AF4-AF9 inh
O=S(=O)(c1ccccc1)N1CCCCN2[C@H](CO)[C@@H](c3ccc(C#Cc4cccnc4)cc3)[C@H]2C1 in the list: i | 6.7
Cc1ccc(S(=O)(=O)N[C@H]2C=C[C@@H](CC(=O)NCc3ccncn3)O[C@H]2CO)cc1 in the list: i | 0.4
COc1cccc(NC(=O)C[C@H]2CC[C@@H]3[C@@H](COc4ccc(NC(=O)C5CC5)cc4C(=O)N3C)O2)c1 in the list: i | 2.6
CC(C)C#Cc1ccc([C@H]2[C@H](CO)N3CCCCN(C(=O)c4ccc(F)cc4)C[C@@H]23)cc1 in the list: i | 5.6
CO[C@H]1CN(C)C(=O)c2cc(NC(=O)C3CCC3)ccc2OC[C@@H](C)NC[C@H]1C in the list: i | 0.0

Other results:
Every second line gives: FGF22 binding	AF4-AF9 inh
C[C@@H]1CCCCO[C@H](CN(C)Cc2ccncc2)[C@H](C)CN([C@H](C)CO)C(=O)c2cc(NC(=O)Nc3ccccc3)ccc2O1
  i	8.3
Cc1ccc(S(=O)(=O)Nc2ccc3c(c2)C(=O)N([C@H](C)CO)C[C@H](C)[C@@H](CN(C)Cc2ccc(C(=O)O)cc2)O3)cc1
  i	-2.4
C[C@@H]1CN([C@H](C)CO)C(=O)c2cc(NC(=O)C3CC3)ccc2O[C@@H]1CN(C)C
  i	-1.0
CN(C)C(=O)c1ccc(-c2ccc([C@H]3[C@@H](CO)N4CCCCN(S(C)(=O)=O)C[C@H]34)cc2)cc1
  i	-4.8
N#C[C@H]1[C@@H](c2ccccc2-c2cccc(F)c2)[C@H](CO)N1S(=O)(=O)c1cccc(F)c1
  i	-2.0
COc1ccc(S(=O)(=O)N2CC[C@@H]3[C@@H](CO)Nc4ccc(-c5ccc(C#N)cc5)cc4[C@@H]32)cc1
  i	-21
